MARV entry inh – qHTS for inhibitors of binding or entry into cells for Marburg Virus; Marburg virus pseudotyped entry inhibition, cell reporter; control for the full effect not named in the record; about a third of the inactives were read at about 46 µM; Potency, µM (titrated, usually from 37.8 µM), for inactives: at the top dose activity change, negative = inhibition, usual class: inhibitors; hit rate 1.8% among 300,000; active = well fitted inhibition curve with a large enough effect; inconclusive = small, poorly fitted or top-dose-only effect, or effect the other way; inactive = flat fitted curve, though single readings scatter; tested in HEK293 cells; about a fifth of its hits are not listed in these tables; further: on the % scale 0 is the no-effect control and ±100 the full control effect; luciferase read-out
LASV entry inh – qHTS for Inhibitors of binding or entry into cells for Lassa Virus; Potency, µM (top dose mostly 37.9 µM), for the others: top-dose activity change, negative = inhibition, hits mostly inhibitors; Lassa virus pseudotype entry inhibition, cell reporter; control for the full effect not named in the record; hit rate 1.2% among 300,000; active means well fitted inhibition curve with a large enough effect; inconclusive means small, poorly fitted or top-dose-only effect, or effect the other way; inactive means flat fitted curve, though single readings scatter; tested in HEK293 cells; further: on the % scale 0 is the no-effect control and ±100 the full control effect; nearly all actives have a fitted effect of over 50% in size; luciferase read-out
2A StopGo – High Throughput Screening for Foot and Mouth Disease Virus Antivirals; human cells with a luciferase reporter of 2A StopGo recoding; control for the full effect not named in the record; Potency, µM (titrated, usually from 57.9 µM), without a hit: top-dose signal change, negative = less light; hit rate 1.2% among 410,000; AID 1159524, 2015; active = well fitted falling curve with a large enough effect; inconclusive = small, poorly fitted or top-dose-only effect; inactive = no such curve, though single readings can be large or run the other way; tested in HEK293T cells; further: on the % scale 0 is the no-effect control and ±100 the full control effect; nearly all actives have a fitted effect of over 45% in size; luciferase light after 4 h
SARS PLP yeast – qHTS of Yeast-based Assay for SARS-CoV PLP | Potency, µM (titrated, usually from 32.9 µM), for inactives: top-dose activity, positive = growth rescue | AID 485353, 2010 | hit rate 0.19% among 330,000 | S. cerevisiae expressing SARS-CoV PLpro, growth rescue; control for the full effect not named in the record; active means well fitted rising curve with a large enough effect; inconclusive means small, poorly fitted or top-dose-only effect; inactive means no such curve, though single readings can be large or run the other way; further: 0% is about no effect; nearly all actives have a fitted effect of over 55% in size; growth read by luminescence after 48 h
NS1 function inh – qHTS Assay for Inhibitors of Influenza NS1 Protein Function; hit rate 0.4% among 270,000; S. cerevisiae slowed by influenza A NS1, growth recovery by OD600; Potency, µM (titrated, usually from 46.1 µM), inactives show at the highest dose activity, positive = more growth; AID 2326, 2010; active means well fitted rising curve with a large enough effect; inconclusive means small, poorly fitted or top-dose-only effect; inactive means no such curve, though single readings can be large or run the other way; further: nearly all actives have a fitted effect of over 50% in size
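OD600 was taken as the measure of yeast growth restored by compound in an NS1-expressing S. cerevisiae strain. Cells had been washed out of glucose medium and diluted 1:100 into galactose -URA medium, pH 6.0.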
Cruzain inh noDet – qHTS Assay for Promiscuous and Specific Inhibitors of Cruzain (without detergent). Cruzipain (Trypanosoma cruzi), P25779. hit rate 2.3% among 200,000. Potency, µM, for the others: max response, negative = inhibition, usual class: inhibitors. AID 1476, 2009. purified cruzain, Z-FR-AMC fluorescence, no detergent;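 further: plate controls were enzyme without inhibitor for no effect and buffer without enzyme for full effect; nearly all actives have a fitted effect of over 40% in size; top concentration of the series not given in the record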
Target sequence (P25779 123-467 limits assumed): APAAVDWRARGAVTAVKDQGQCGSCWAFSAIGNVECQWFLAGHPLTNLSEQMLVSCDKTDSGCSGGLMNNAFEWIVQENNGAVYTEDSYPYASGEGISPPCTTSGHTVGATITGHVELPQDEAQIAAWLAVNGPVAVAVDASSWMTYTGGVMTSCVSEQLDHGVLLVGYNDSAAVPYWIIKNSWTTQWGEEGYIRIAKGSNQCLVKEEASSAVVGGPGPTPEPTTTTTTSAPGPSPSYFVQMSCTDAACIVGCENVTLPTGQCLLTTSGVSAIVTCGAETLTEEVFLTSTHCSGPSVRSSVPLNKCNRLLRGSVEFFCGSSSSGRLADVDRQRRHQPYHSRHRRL
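Purified cruzain at 1.5 nM, pre-incubated 15 min with compound at room temperature in 100 mM sodium acetate pH 5.5, 5 mM DTT, 0.00005% Triton X-100. Reaction started with 2 uM Z-FR-AMC; AMC fluorescence increase over 60 s gives rate.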
Cruzain inh Det – qHTS Assay for Promiscuous and Specific Inhibitors of Cruzain (with detergent) | purified cruzain, Z-FR-AMC fluorescence, 0.01% Triton | Cruzipain (Trypanosoma cruzi), P25779 | hit rate 0.43% among 200,000 | AID 1478, 2009 | Potency, µM, inactives show max response, negative = inhibition, actives largely listed as inhibitors;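 further: plate controls were neutral wells for no effect and buffer without enzyme for full effect; nearly all actives have a fitted effect of over 40% in size; top concentration of the series not given in the record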
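Cysteine protease activity tested under reducing, mildly acidic conditions (100 mM sodium acetate pH 5.5, 5 mM DTT) plus 0.01% Triton X-100. Cruzain 1.5 nM; substrate Z-FR-AMC 2 uM; 15 min compound preincubation at room temperature.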
RE007 growth inh – qHTS Assay for Inhibitors of the HIV-1 protein Vpr; S. pombe RE007 Vpr strain, BacTiter-Glo ATP luminescence, 24 h; control for the full effect not named in the record; Potency, µM (titrated, usually from 92.2 µM), for the others: top-dose activity change, negative = less growth; hit rate 0.21% among 360,000; AID 651644, 2012; active = well fitted falling curve with a large enough effect; inconclusive = small, poorly fitted or top-dose-only effect; inactive = no such curve, though single readings can be large or run the other way;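 further: on the % scale 0 is the no-effect control and ±100 the full control effect; nearly all actives have a fitted effect of over 50% in size; the assay follows cell death caused by Vpr and the record does not say whether a fall means rescue or toxicity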
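Fission yeast RE007 carrying one integrated HIV-1 vpr copy, seeded at OD 0.01 in PMG+AL medium with 23 nL pinned compound. Grown 24 h at 30 degrees; viability read by BacTiter-Glo luminescence after 5 min.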
* = called active by the depositor; ? = inconclusive; . = not tested or not shown; [ ] = remark or other dose. Unless noted, the call rests on the fitted dose curve; in most records, active means well fitted curve in the direction sought with a large enough effect; inconclusive means small, poorly fitted or top-dose-only effect, or another doubt; inactive means no such curve, though single readings can be large; an effect the other way counts as inactive or inconclusive. Potency means the concentration at half of the fitted maximal effect.

mol	MARV entry inh	LASV entry inh	2A StopGo	SARS PLP yeast	NS1 function inh	Cruzain inh noDet	Cruzain inh Det	RE007 growth inh
CC1CN(C(=O)CCN2C(=O)c3ccccc3C2=O)CC(C)O1 (stereo not drawn)	?	0%	-22%	0%	1%	0%	-0.3%	-2%
COc1ccccc1N1CCN(C(=O)c2cc(CC(C)C)on2)CC1	8%[46.1 µM]	28%[46.1 µM]	-9%	.	.	13%	-5.4%	.
CN1CCCC(C(=O)c2ccc(-c3ccccc3)cc2)C1 (stereo not drawn)	.	.	17%	6%	14%	.	.	-11%
CNC(=S)NNC(=O)c1sccc1OCc1ccccc1	1%	3%	-17%	4%	5%	-1%	3.0%	5%
COc1ccc(CCNC(=O)CSc2ncnc3c2oc2ccccc23)cc1OC	-28%[46.1 µM]	29%	?	-2%	-5%	16%	4.8%	0%
O=S(=O)(c1cccc(-c2nnc3n2CCCCC3)c1)N1CCOCC1	1%	-12%	30%[activator]	-1%	2%	.	.	-9%
COc1ccccc1N1CCN(C(=O)CN(c2ccccc2OC)S(=O)(=O)c2ccccc2)CC1	-17%	-1%	32%[activator]	1%	-8%	?	2.9%	0%
O=C(O)C1CC=CCC1C(=O)N1CCCC1 (stereo not drawn)	0%	-2%	-14%	-1%	-2%	-5%	4.7%	-8%
CC(=O)NC(=C(Cl)Cl)S(=O)(=O)c1ccccc1	10µM*	?	22µM*	-11%	.	.	.	6%
O=C(COC(=O)c1ccccc1Br)NCc1cccs1	?	7%	21%	-2%	.	.	.	1%
CC(C)Cc1nnc(NC(=O)CCC(=O)N2CCN(c3ccc(Cl)cc3)CC2)s1	1%[46.1 µM]	-16%[46.1 µM]	5%	4%	11%	.	.	0%
Cc1c(OCC(=O)N2CCC[C@@H]2C(=O)O)ccc2c3c(c(=O)oc12)CCC3	.	.	-10%	8%	8%	.	.	-1%
Cc1nnsc1SCCNC(=O)Nc1ccc(Cl)cc1	-17%	13%	20%	-2%	-36%	.	.	5%
O=C(/C=C/c1ccc(F)cc1)Nc1nc2n(n1)C(c1ccc(Cl)cc1)C=C(c1ccccc1)N2 (stereo not drawn)	?	0%[46.1 µM]	-12%	.	.	7%	-1.3%	.
CSc1ccc(/C=N/N2CCN(Cc3ccc(C)cc3C)CC2)cc1	.	.	-19%	-2%	5%	.	.	4%
CC(=O)Nc1ccc(SC[C@H](CC(C)C)N2CCN(CC(C)C)CCC2=O)cc1	.	.	0%	-2%	0%	.	.	5%
COC(=O)c1c(C)oc2ccc(N(C(=O)c3ccncc3)S(=O)(=O)c3cc(C)ccc3C)cc12	-29%[46.1 µM]	?	-9%	.	.	7%	-6.2%	.
COc1ccc(C)cc1NC(=O)c1cnc2scc(C)n2c1=O	.	.	-4%	-5%	-9%	-4%	-3.4%	-3%
C#CC(C)(O)C1CC(CC(=O)O)C1(C)C (stereo not drawn)	1%[46.1 µM]	-8%[46.1 µM]	45%[activator]	.	.	.	.	5%
CC(=O)c1ccccc1OCCCCN1CCCCC1	.	.	-1%	1%	-11%	.	.	-5%
N#C/C(=C\c1ccc(F)cc1)c1n[nH]c(Cn2cncn2)n1	2%	?	1%	-6%	4%	-1%	4.0%	0%
Cc1ccc(S(=O)(=O)Nc2ccc(-n3c(C)nc4ccccc4c3=O)cc2)cc1	4%	10%	31%	0%	.	.	.	30%
Cn1c(=O)cc(OCC(=O)N2CCN(C3CCCCC3)CC2)c2ccccc21	.	.	-1%	-5%	?	-5%	0.1%	-4%
CC(C)C(=O)NC(C)C(c1cccs1)N1CCOCC1 (stereo not drawn)	-4%	1%	6%	6%	4%	0%	-3.9%	12%
COC(=O)c1ccccc1NC(=O)/C=C/c1ccco1	1%	?	24%	-2%	-13%	2%	-3.3%	-10%
CC(C)NC(=O)c1nn(-c2ccccc2F)nc1CO	20%[46.1 µM]	-6%[46.1 µM]	-14%	.	.	6%	0.6%	.
CSCCC(NC(=O)c1cccc(S(=O)(=O)N2CCOCC2)c1)C(=O)Nc1cccc(C)c1 (stereo not drawn)	?	-7%	24%	6%	-5%	?	-4.0%	4%
CCC/C=N/NC(=O)CNC(=O)c1ccccc1Cl	5%[46.1 µM]	6%[46.1 µM]	4%	-4%	5%	.	.	-13%
NCCc1nnc(SCC(=O)Nc2cccc(Cl)c2)o1	.	.	-12%	4%	0%	.	.	6%
CCOc1cc(-c2nccc3cc(OC)c(OC)cc23)cc(OCC)c1OCC	13µM*	?	?	-5%	6%	.	.	-22%
CC(C)(C)NCC(O)COc1ccccc1C(C)(C)C (stereo not drawn)	?	?	.	0%	0%	8%	8.8%	-15%
CCCCCn1c(CCCNC(=O)CC)nc2ccccc21	.	.	0%	-17%	-4%	12%	-1.3%	0%
Cc1ccn2c(=O)c(C(=O)NCCc3ccc(S(N)(=O)=O)cc3)c(O)nc2c1	?	.	0%	.	.	-9%	-0.6%	.
Cc1ccccc1-c1nc(CN2CCC(C(=O)NCc3ccco3)CC2)c(C)o1	-10%	17%	-2%	1%	-8%	10%	-1.3%	-4%
COc1cccc(-c2nc(CS(=O)(=O)CC(=O)NCCCN3CC(C)CC(C)C3)c(C)o2)c1 (stereo not drawn)	.	.	-13%	-2%	-12%	.	.	-8%
O=C(CN1C(=O)S/C(=C\c2ccccc2Cl)C1=O)NCCCn1ccnc1	5%[46.1 µM]	-6%[46.1 µM]	0%	-6%	-5%	.	.	-22%
CCCn1c(S(=O)(=O)O)nc2ccccc21	1%	8%	7%	0%	2%	.	.	0%
O=C(Nc1ccc(F)c(Cl)c1)c1cccnc1	?	?	1%	6%	-15%	.	.	-28%
CC(C)c1ccc(OCC(=O)NC(=S)Nc2ccc3c4c(cccc24)CC3)cc1	?	4%	-3%	1%	6%	25µM*	1.2%	12%
COCCn1nnnc1C(CC(C)C)N1CCN(c2ccccc2)CC1 (stereo not drawn)	?	-8%	-23%	15%	-1%	7%	-2.7%	9%
O=C(CCS(=O)(=O)c1cc(Br)cc2c1N(C(=O)C1CC1)CC2)N1CCN(c2cccc(Cl)c2)CC1	?	-2%[46.1 µM]	-17%	.	.	10%	-0.2%	.
CCN1CCCC1CN(Cc1cc2c(C)cc(C)cc2[nH]c1=O)C(=O)NC1CCCCC1 (stereo not drawn)	?	-3%	10%	?	17%	-20%	-7.2%	-15%
CC(C)C[C@H](N)C(=O)N1CCC(C(=O)N[C@H](C(=O)NCc2ccc(F)cc2)C(C)C)CC1	.	.	-17%	2%	7%	.	.	-12%
Cc1cc(CSc2ccccc2)ccc1NC(=O)c1ccc(Cl)c([N+](=O)[O-])c1	26%[46.1 µM]	-3%	-27%	0%	-63%	?	3.8%	4%
Nc1nnc(-c2cccc([N+](=O)[O-])c2)o1	18%[46.1 µM]	16%[46.1 µM]	-11%	1%	0%	.	.	-15%
COc1ccc(S(=O)(=O)CC(=O)c2cc3cc(Br)ccc3oc2=O)cc1	.	.	-15%	-6%	-3%	.	.	1%
CN1CCN(c2ccc([N+](=O)[O-])c(-n3nc(-c4ccccc4)c4ccccc4c3=O)c2)CC1	?	?	-3%	2%	13%	-1%	-0.3%	-2%
CCOC(=O)c1ccc(NC(=O)CCc2nc(-c3ccc(Cl)cc3)no2)cc1	?	?	?	-2%	1%	1%	-3.8%	12%
O=C(O)C1CC(=O)N(c2ccc(OCc3ccccc3)cc2)C1 (stereo not drawn)	-10%	2%	-9%	1%	5%	-9%	-1.8%	0%
CCc1cccc(C)c1NC(=O)CN1C(=O)c2c(c3ccccc3n2C)C1c1ccc(OC)cc1 (stereo not drawn)	.	-8%[46.1 µM]	-19%	.	.	16%	-6.0%	.
Cc1ccc(-c2c(C(=O)N/N=C/C3CCCCC3)nnn2-c2nonc2N)cc1	-3%[46.1 µM]	-5%[46.1 µM]	-1%	6%	14%	.	.	0%
CCOC(=O)COc1ccc2c(c1)c(C(C)=O)c(C)n2-c1ccccc1	8%	?	-2%	-1%	-1%	.	.	7%
COc1cc(C(O)P(=O)(OC2CCCCC2)c2ccc(N(C)C)cc2)cc(OC)c1OC (stereo not drawn)	14%	7%	40%[activator]	10%	-7%	?	4.5%	1%
CCOc1ccc(C(=O)c2cn(CC(=O)Nc3ccc4c(c3)OCO4)c3ccc(OC)cc3c2=O)cc1	-18%[46.1 µM]	0%[46.1 µM]	-9%	.	.	5%	-3.1%	.
O=c1[nH]c(NCCO)c(N=Cc2ccccc2)c(=O)[nH]1	1%[46.1 µM]	-8%	-8%	.	.	.	.	-10%
O=C(Nc1nnc(S(=O)(=O)N2CCN(c3ccc(F)cc3)CC2)s1)c1ccco1	.	.	8%	-6%	-2%	.	.	-6%

The results go on:
mol	MARV entry inh	LASV entry inh	2A StopGo	SARS PLP yeast	NS1 function inh	Cruzain inh noDet	Cruzain inh Det	RE007 growth inh
O=[N+]([O-])c1ccc2nc(CN3CCCCC3)[nH]c2c1	7%[46.1 µM]	?	14%	-3%	.	.	.	-4%
COc1cc2ccccc2cc1C(=O)Nc1ccccc1Cl	.	.	-8%	-10%	-34%	.	.	-9%
Cc1ccc(NC(=O)CCn2c(=O)[nH]c3ccsc3c2=O)cc1	27%[46.1 µM]	1%[46.1 µM]	29%	0%	.	.	.	-4%
CC(C)Oc1ccc(NC(=O)c2cc3ccccc3o2)cc1	?	9%[46.1 µM]	-34%	.	.	-3%	-6.1%	.
COc1cc(CNCCc2ccc(S(N)(=O)=O)cc2)ccc1OCc1ccc(Cl)cc1	?	?	?	-8%	2%	-2%	1.0%	10%
COc1ccc(C(=O)/C=C/N2CCCCC2)cc1OC	1%	21%	.	-1%	-49%	-12%	-7.7%	?

Screening results (PubChem)
